rRNA inh HTS – inhibitors of bacterial rRNA selective over humanized ribosomes; GFP signal change (wild-type ribosome), % (concentration not given with the values); 1.6% of 350,000 active; E. coli WT GFP vs humanized-ribosome RFP mutants, fluorescence, 24 h; stronger effect = lower value; DMSO median 0, no signal -100;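 active = significant combined selectivity score with lowered wild-type GFP, culture density cut under 30%, mutant RFP and density less affected; inactive = any of these conditions unmet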; also: one replicate is shown; some compounds called inactive have numbers as strong as hits
Bfl-1 A1 inh – inhibitors of the anti-apoptotic protein A1, read as caspase activation | MEF A1-2A-BIM cells, Caspase-Glo 3/7 luminescence, 3 h; percent of clofoctol response, vehicle zero | caspase activation, % (test concentration not listed) | 0.066% of 330,000 active | AID 2462;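 active = over half of replicate activation scores above 10%, or exactly half above 10 with the replicate mean above 10; inconclusive = replicate mean below 10 yet half the replicates above 10; inactive = over half of replicates below 10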;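 also: wells of about 30 µL received 50 nL stock; many hits fall short of the cut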
T cruzi inh – T. cruzi replication inhibition; T. cruzi beta-gal in NIH3T3, luminescence, 90 h; inhibition, % (test concentration not listed); 1.4% of 300,000 active; AID 1885;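 active = mean inhibition across valid replicates above about 55%, limit read from the data; inconclusive = mean below that limit but half or more replicates reach it; inactive = mean below it, under half of replicates reach it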;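 also: signal also drops with host cell toxicity which is not excluded here; 0% = plate median of DMSO wells and 100% = zero luminescence signal; higher percent means less beta-gal luminescence so fewer parasites; stock transfer was 50 nL into about 50 µL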
LANA-H2B inh – blocks KSHV LANA binding to histone H2A/H2B. Q9QR71. cell-free LANA-H2A/H2B peptide, fluorescence polarization. inhibition, % (test concentration not listed). 0.6% of 320,000 active. AID 2629; in the data active = inhibition mostly above about 10%, no sharp cut-off; inactive = mostly below about 6.7%;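 also: stock transfer was 7.5 nL into about 10 µL; 0% = median of vehicle wells and 100% = median of positive control wells; one replicate is shown; the record names a cut of 25% in any replicate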
Calb FLC – affects C. albicans growth with fluconazole. C. albicans CaCi-2 (fluconazole-resistant clinical isolate) + fluconazole, Alamar Blue growth, 48 h. growth inhibition, % (test concentration not listed). 0.57% of 300,000 active. AID 1979;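 active = most replicates above 75%; inconclusive = exactly half above 75%; inactive = most below 75%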;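 also: all wells also contain fluconazole at 8 µg/ml as a sub-toxic cotreatment; 0% = median of DMSO wells and 100% = median of geldanamycin control wells; wells of about 8 µL received 7.5 nL stock; the first replicate is given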
Beta cell apopt – beta cell apoptosis inhibition; INS-1E cytokine-induced death, ATP luminescence, 48 h; percent of positive-control rescue, neutral wells zero; protection from apoptosis, % (test concentration not listed); 0.8% of 300,000 active;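 active = all replicates at 75% or more, or half of them and the mean; inconclusive = half reach 75% but not the mean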;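 also: 0% = cytokine-treated negative control wells and 100% = positive control rescue; higher means more ATP so stronger rescue from cytokine killing; wells of about 40 µL received 100 nL stock; the first replicate is given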
ALR H2O2 inh – human ALR oxidase inhibition via reduced H2O2. 3.8% of 290,000 active. purified ALR, DTT oxidation, H2O2 HRP-luminol luminescence. inhibition, % (concentration not given with the values). AID 485317;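 active = mean and each replicate at 75% or more; inconclusive = only one of the two met; inactive = neither met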;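 also: stock transfer was 7.5 nL into about 7.5 µL; 0% = neutral wells and 100% = wells with inactivated enzyme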
Target sequence (P55789 whole entry, looked up): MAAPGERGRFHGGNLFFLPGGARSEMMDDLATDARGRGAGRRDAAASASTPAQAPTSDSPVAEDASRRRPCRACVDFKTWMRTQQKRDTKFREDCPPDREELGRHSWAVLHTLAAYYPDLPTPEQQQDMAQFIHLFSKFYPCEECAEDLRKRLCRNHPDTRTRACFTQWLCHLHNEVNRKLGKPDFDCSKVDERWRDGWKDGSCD
Beta2AR agonist – activates human beta-2 adrenergic receptor causing internalization; 0.43% of 340,000 active; Am2.2-beta2AR cells, FAP receptor internalization, flow cytometry; reference of the scale not given here; response, % (test concentration not listed);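 active = response above a set limit, near 3 SD of response in nonfluorescent compounds, cut at about 42% in these data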;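 also: stock transfer was 100 nL into about 11 µL; a reference agonist was the positive control; negative values mostly stem from fluorescent compounds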
Target sequence (P07550 whole entry, looked up): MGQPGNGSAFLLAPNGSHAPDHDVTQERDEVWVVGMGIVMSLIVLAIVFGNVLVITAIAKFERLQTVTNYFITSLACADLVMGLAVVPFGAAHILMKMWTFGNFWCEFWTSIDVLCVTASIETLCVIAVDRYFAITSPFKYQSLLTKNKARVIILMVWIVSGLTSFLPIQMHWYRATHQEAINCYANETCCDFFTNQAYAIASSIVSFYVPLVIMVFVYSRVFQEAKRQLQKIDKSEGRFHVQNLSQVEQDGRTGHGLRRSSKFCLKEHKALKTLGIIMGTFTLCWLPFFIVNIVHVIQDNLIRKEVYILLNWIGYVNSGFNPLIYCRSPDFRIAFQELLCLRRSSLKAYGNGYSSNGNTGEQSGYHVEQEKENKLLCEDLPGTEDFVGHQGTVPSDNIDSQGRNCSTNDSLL
rRNA inh HTS OD600 – recorded beside rRNA inh HTS, whose call it bears; OD600 change, %; measured here: OD600 growth;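 optical density of the mix in the first replicate; 0 = DMSO median and -100 = no signal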
rRNA inh HTS RFP – also measured in rRNA inh HTS; calls as there; RFP signal change, %; measured here: RFP humanized mutant strains;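 first replicate; 0 = DMSO median and -100 = no signal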
Active calls of the source: *; ? = inconclusive; · = no result given. The list is partial (hit frequency here may not be typical).

SMILES	rRNA inh HTS	rRNA inh HTS OD600	rRNA inh HTS RFP	Bfl-1 A1 inh	T cruzi inh	LANA-H2B inh	Calb FLC	Beta cell apopt	ALR H2O2 inh	Beta2AR agonist
C[C@H]1O[C@@H](O[C@H]2CC[C@@]3(C)C(CC[C@]4(C)C3C=CC3=C5CC(C)(C)CC[C@]5(CO)[C@H](O)C[C@]34C)[C@]2(C)CO)[C@H](O)[C@@H](O[C@@H]2O[C@H](CO)[C@@H](O)[C@H](O)[C@H]2O)[C@H]1O (some centres not stated)	12	13	28	-0.5	·	3.9	·	2	-8	-2
Cc1cc(C)c(C)c(S(=O)(=O)Nc2ccc(C(=O)N3CCCC3)cc2)c1C	-15	-4	10	-0.6	5	1.7	3	0	-10	10
O=C(Nc1ccccc1C(F)(F)F)c1ccsc1	5	5	1.8	?	-2	2.8	-8	-4	1	-7
CCC(C)(C)n1nnnc1C(c1ccncc1)N1CCC(Cc2ccccc2)CC1 (configuration not stated)	·	·	·	0.1	65*	2.6	-12	3	·	18
CN(CC(=O)Nc1c(Cl)cccc1Cl)C(=O)c1cc2ccccc2cc1O	0	9	0.5	0.2	-9	·	-3	1	·	0
Cc1cc(=O)oc(C)c1C(=O)NCCC(C)C	5	-11	-2.7	-0.6	-4	5.4	-17	-6	11	-5
Cc1ccc(-c2c[n+](=O)c3c(n2[O-])CCC3)cc1	16	15	0.7	-0.9	-7	-0.4	2	·	7	6
Cc1cc(=O)[nH]c2c1c(-c1ccccc1)nn2C	-2	2	0.4	0.9	-37	1.9	-2	-3	-6	-2
COC(=O)COc1ccc(C2Nc3c(Cl)ccc(C(=O)O)c3C3C=CCC32)cc1 (configuration not stated)	18	14	14	0.4	-7	-3.5	13	-5	21	-3
CCOC(=O)C1=C(COC(=O)c2cc(OC)c(OC)c(OC)c2)NC(=O)NC1C (configuration not stated)	2	11	-1.2	1.0	-2	-5.9	1	-4	-2	4
CCOc1ccc(S(=O)(=O)NC(C)C(=O)NC2CCCC2)cc1 (configuration not stated)	9	11	-0.8	?	-17	-5.3	-9	-1	-21	-4
COCCn1nnnc1C(c1ccc(O)c(OC)c1)N1CCc2ccccc2C1 (configuration not stated)	·	·	·	-0.9	-9	-2.2	6	-5	28	0
OCCC1CN(Cc2cccn2-c2ncccn2)CCN1CCc1ccccc1 (configuration not stated)	7	-20	0.6	-0.3	6	8.8	-4	-2	·	-3
Cc1cc(C(=O)NN=C2C3CC4CC(C3)CC2C4)c2ccccc2n1	·	·	·	0.3	-9	-0.8	-4	3	-8	-9
CC(CC1C(C#N)=C(N)OC2=C1C(=O)CCC2)c1ccccc1 (configuration not stated)	·	·	·	0.1	10	-1.4	-6	-4	·	8
CC(NC(=O)c1ccco1)c1ccc2c(c1)OCO2 (configuration not stated)	0	5	-2.1	-0.3	1	4.6	-8	-2	0	3
N#Cc1c(N)n(-c2cccc(O)c2)c2nc3ccccc3nc12	-1	-2	13	0.3	-6	-6.9	0	-1	-12	9
CCCCNC(=O)c1ccc2c(c1)N(CC)C(=O)CS2	·	·	·	-0.4	-3	-4.7	5	-1	-10	1
Cc1csc(NC(=O)c2ccc(-c3ccc(Cl)cc3Cl)o2)n1	11	4	-2.5	0.0	-1	-1.6	-4	10	-1	-1
COc1ccc(N2CCN(CC(=O)NC(=O)NC(C)(C)C)CC2)cc1	-1	-1	-0.4	0.9	-20	1.1	-20	-6	?	-5
CC(NC(=O)COc1ccc(N(C)S(=O)(=O)c2ccccc2)cc1)c1ccccc1 (configuration not stated)	-14	-32	-5.9	0.0	2	3.7	·	5	0	-6
CCOc1ccc(C(=O)N2CCCC2C(=O)O)cc1 (configuration not stated)	·	·	·	-0.1	·	-0.1	·	-7	-1	5
CCOc1ccc2nc(NC(=O)Nc3ccccc3)sc2c1	·	·	·	-1.4	0	3.0	4	4	-7	2
Cc1ccc(NC(=O)COC(=O)C2=COCCO2)c([N+](=O)[O-])c1	1	2	-2.5	0.4	-14	0.7	0	-2	32	0
C=CCn1c(O)c(/C=C2\C=NN=C2c2ccccc2)sc1=S	2	5	0.8	-0.5	3	3.7	3	-6	·	7
Cc1ccc2c(c1)nnn2C1CCN(S(C)(=O)=O)CC1	·	·	·	0.5	0	-1.8	16	-4	·	-1
CCN(CC)CCNc1nc(-c2ccccc2)nnc1C(F)(F)F	·	·	·	-0.3	-9	-1.8	0	3	-9	4
COCCCN1Cc2cccc(C(=O)O)c2C1=O	2	-6	-0.9	0.0	-10	-0.4	-2	-1	15	-9
Cc1ccc(S(=O)(=O)NCc2c(-c3ccccc3)noc2C)cc1	-23*	-6.0*	5.6*	2.9	-7	-1.4	-3	-1	6	-5
COc1ccc(/C=C/C(=O)Nc2nc(C)c(C(=O)N(C)C)s2)cc1	·	·	·	-0.6	-5	2.6	-2	2	7	-1
CCCOc1ccc(/C=C/C(=O)O)cc1OC	5	-1	-2.9	0.3	-13	-0.1	-13	-6	-4	0
Cc1cc(/C=N/Nc2ccc([N+](=O)[O-])cn2)c(C)n1-c1cccc(C(=O)O)c1	10	6	-2.7	0.2	0	-0.7	0	-2	·	-26
COc1cccc(CN(C)S(=O)(=O)c2cccs2)c1	-3	-11	-1.6	-0.1	4	-4.5	8	-5	·	-7
CNC(=O)c1ccsc1NC(=O)CCS(=O)(=O)c1ccc(F)cc1	12	6	0.7	0.0	1	-1.0	24	·	25	-7
CCN(CC)S(=O)(=O)c1cccc(-c2nnc(SCc3nc4ccccc4s3)o2)c1	·	·	·	1.4	22	7.8	12	1	-26	2
CC(C)CCOC(=O)C[N+](C)(C)CCOC1CC2CCC1(C)C2(C)C (configuration not stated)	-55	-77	-22	0.5	61*	-2.4	103*	32	·	-2
CC1CCCN(C(=O)CSc2nnc(-c3ccc(O)cc3)o2)C1 (configuration not stated)	-19	-17	2.9	-0.2	7	2.2	-3	-6	·	1
CCCCOc1ccc(/C=C(\C(=O)O)c2ccc(S(=O)(=O)N3CCCC3)s2)cc1	-10	-9	-2.9	-0.3	·	-0.5	·	9	44	-3
O=C(NCCc1ccccc1)c1c(F)cccc1F	20	12	-3.7	?	-3	7.4	4	-6	1	0
COC(=O)c1cc(OC)c(OC)cc1NC(=O)c1ccc(Br)o1	·	·	·	0.5	-12	2.8	30	-9	-19	0
COc1ccc(Cc2nc3ccccc3n2CC(=O)N/N=C/c2ccc(C)cc2O)cc1OC	·	·	·	0.1	-4	-0.6	0	6	0	8
Cc1ccc(C)c(NC(=O)C2Cc3ccccc3CN2C(=O)OCc2ccccc2)c1 (configuration not stated)	·	·	·	0.9	11	2.0	2	-4	-5	-7
COc1cc(C(=O)NC(=S)Nc2ccccc2N2CCCC2)cc(OC)c1OC	-19	-23	2.2	1.0	22	5.6	-21	15	-10	4
O=C(N/N=C/c1c(O)n(-c2ccc(Cl)cn2)c(=O)c2ccccc12)C1CC1	·	·	·	0.2	-7	-2.9	19	17	95*	-2
COC(=O)C(C)Oc1ccc2c3c(c(=O)oc2c1)CCCCC3 (configuration not stated)	·	·	·	0.7	-5	0.5	3	-2	-13	2

Brought forward from above: 6 compounds; new compounds follow.
SMILES	rRNA inh HTS	rRNA inh HTS OD600	rRNA inh HTS RFP	Bfl-1 A1 inh	T cruzi inh	LANA-H2B inh	Calb FLC	Beta cell apopt	ALR H2O2 inh	Beta2AR agonist
COC(=O)c1cc(OC)c(OC)cc1NC(=O)c1ccc(Br)o1	·	·	·	0.5	-12	2.8	30	-9	-19	0
COc1ccc(Cc2nc3ccccc3n2CC(=O)N/N=C/c2ccc(C)cc2O)cc1OC	·	·	·	0.1	-4	-0.6	0	6	0	8
Cc1ccc(C)c(NC(=O)C2Cc3ccccc3CN2C(=O)OCc2ccccc2)c1 (configuration not stated)	·	·	·	0.9	11	2.0	2	-4	-5	-7
COc1cc(C(=O)NC(=S)Nc2ccccc2N2CCCC2)cc(OC)c1OC	-19	-23	2.2	1.0	22	5.6	-21	15	-10	4
O=C(N/N=C/c1c(O)n(-c2ccc(Cl)cn2)c(=O)c2ccccc12)C1CC1	·	·	·	0.2	-7	-2.9	19	17	95*	-2
COC(=O)C(C)Oc1ccc2c3c(c(=O)oc2c1)CCCCC3 (configuration not stated)	·	·	·	0.7	-5	0.5	3	-2	-13	2
CCOc1ccc(N(CC(=O)Nc2cc(C)ccc2C)S(=O)(=O)c2c(C)[nH]c(=O)[nH]c2=O)cc1	3	2	2.8	0.6	0	2.1	-6	-3	13	-1
CCOc1ccc(C(=O)NCC(c2ccco2)N2CCOCC2)cc1 (configuration not stated)	5	4	-1.5	0.3	-9	0.1	-6	-1	-8	-1
COc1ccc(N2CCN(CCCn3c(=S)[nH]c4ccccc4c3=O)CC2)cc1	-4	-17	0.2	0.1	?	3.4	8	8	95*	6
CC1CCCC/C1=N/Nc1ccc([N+](=O)[O-])cc1[N+](=O)[O-] (configuration not stated)	·	·	·	-0.1	2	0.9	10	9	-4	35
O=C(Cc1cccs1)N/N=C/c1ccccc1	·	·	·	1.4	2	-2.6	-2	-4	-4	4
CC(C)NC(=O)c1ccccc1S(=O)c1ccccc1C#N (configuration not stated)	·	·	·	0.0	-12	0.3	-3	0	100*	-12
CCOc1ccc(OCCOc2ccc(/C=C/C(=O)O)cc2OCC)cc1	-5	1	-2.8	0.1	·	-7.4	-2	-2	·	6
CC1CN(C(=O)c2ccc(S(=O)(=O)Nc3ccccc3F)cc2)CC(C)O1 (configuration not stated)	2	4	-1.0	0.8	2	-2.2	-5	-8	3	2
Cc1ccc(C(=O)NCCN2C3=NC[C@H](C)N3C[C@H]2Cc2ccc(O)cc2)cc1Br	0	-1	1.0	-1.0	-18	2.5	-11	7	7	11
CCN(CC)S(=O)(=O)c1ccc(OC)c(NC(=O)Cn2cnc3c2c(=O)n(C)c(=O)n3C)c1	5	9	0.2	0.5	-7	4.1	5	1	-5	-12
CCCSc1ccc(C(=O)Nc2ccc(Cl)cc2)cn1	-4	2	-4.8	0.6	3	1.0	-16	1	-5	36
CN(C)c1ccc(/C=N/NC2=NS(=O)(=O)c3ccccc32)cc1	14	16	1.0	0.5	3	3.5	·	-8	50	4
O=C(NCC(c1ccco1)N1CCCCC1)c1ccc2c(c1)S(=O)(=O)c1ccccc1C2=O (configuration not stated)	-15	-23	-1.2	0.3	9	-3.3	-11	-8	-1	-4
CC(C)(C)OC(=O)COc1cc(OCC(=O)OC(C)(C)C)c2c(=O)cc(-c3ccccc3)oc2c1	·	·	·	1.0	·	0.1	·	10	-4	-5
COc1ccc(/C=C/C(=O)NCC(=O)n2nc(C)cc2C)cc1	0	19	0.4	-0.5	-3	2.6	-6	5	1	-3

Compound activity deposited in PubChem by several laboratories.
